Source: PubChem BioAssay (National Center for Advancing Translational Sciences (NCATS))
Six1-Eya2 blk: qHTS Assay for Inhibitors of the Six1/Eya2 Interaction | Homeobox protein SIX1 (Homo sapiens) + Protein phosphatase EYA2 (Homo sapiens), … | AlphaScreen GST-Six1/His-Eya2 binding, biochemical; hits give low values; control for the full effect not named in the record | activity change, % (concentration not given with the values) | 0.56% of 360,000 active; in the data active = activity change below about -65%; inconclusive = about -30% to -65%; inactive = above about -30%; further: on the % scale 0 is the no-effect control and ±100 the full control effect
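Six1/Eya2 binding was read as AlphaScreen signal after compounds were pinned into GST-Six1 plus His-tagged Eya2 (5X stock 250/500 nM) in pH 8.0 Tris/NaCl/TCEP buffer, beads added, then incubated 1 h, 37 C, dark.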
TRPML1 ag: qHTS for Agonists of the Human Mucolipin Transient Receptor Potential 1 (TRPML1). Mucolipin-1 (Homo sapiens), Q9GZU1. TRPML1-expressing cells, Ca2+ dye fluorescence, FDSS; host cell line not named in the record; reference of the full effect not given here. activation, % (concentration not given with the values). 0.12% of 410,000 active. AID 624414, 2012; in the data active = activation above about 50%; inconclusive = about 30% to 50%; inactive = below about 30%; further: 0% is about no effect; the text of the record puts the active cut at 80%
Target sequence (Q9GZU1 whole entry, looked up): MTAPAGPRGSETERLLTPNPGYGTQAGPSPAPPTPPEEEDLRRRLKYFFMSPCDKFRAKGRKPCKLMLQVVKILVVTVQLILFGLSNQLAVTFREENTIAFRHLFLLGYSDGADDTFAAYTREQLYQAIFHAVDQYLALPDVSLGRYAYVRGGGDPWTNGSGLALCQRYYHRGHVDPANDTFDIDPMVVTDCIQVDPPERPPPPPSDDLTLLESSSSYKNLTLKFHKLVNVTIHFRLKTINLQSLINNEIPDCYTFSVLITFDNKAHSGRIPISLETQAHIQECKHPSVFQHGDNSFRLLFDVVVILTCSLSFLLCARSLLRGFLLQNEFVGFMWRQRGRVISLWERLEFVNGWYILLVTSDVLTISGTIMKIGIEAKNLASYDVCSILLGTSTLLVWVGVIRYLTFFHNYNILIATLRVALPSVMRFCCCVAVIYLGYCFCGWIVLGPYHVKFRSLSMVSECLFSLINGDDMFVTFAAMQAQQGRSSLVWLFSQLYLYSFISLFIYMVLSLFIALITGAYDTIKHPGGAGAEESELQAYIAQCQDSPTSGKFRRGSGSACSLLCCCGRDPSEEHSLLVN
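Agonist activity was taken from a 110 s kinetic Ca2+ dye read on the FDSS after pinning compounds onto TRPML1-DL cells. The cells were seeded at 1,500/well with Tet inducer, incubated about 16 h, then dye-loaded at room temperature.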
D2 agonist: Beta-Arrestin HTS for Positive Allosteric Modulators of the Human D2 Dopamine Receptor: Agonists; activation, % (concentration not given with the values); DiscoveRx PathHunter D2 beta-arrestin, luminescence, 90 min; 100% = 57 uM dopamine signal; 0.084% of 360,000 active; D(2) dopamine receptor (Homo sapiens), P14416; in the data active = activation above about 40%; inconclusive = about 15% to 40%; inactive = below about 15%; further: compound concentration not given in the record; the text of the record calls up to 30% inactive
Target sequence (P14416 whole entry, looked up): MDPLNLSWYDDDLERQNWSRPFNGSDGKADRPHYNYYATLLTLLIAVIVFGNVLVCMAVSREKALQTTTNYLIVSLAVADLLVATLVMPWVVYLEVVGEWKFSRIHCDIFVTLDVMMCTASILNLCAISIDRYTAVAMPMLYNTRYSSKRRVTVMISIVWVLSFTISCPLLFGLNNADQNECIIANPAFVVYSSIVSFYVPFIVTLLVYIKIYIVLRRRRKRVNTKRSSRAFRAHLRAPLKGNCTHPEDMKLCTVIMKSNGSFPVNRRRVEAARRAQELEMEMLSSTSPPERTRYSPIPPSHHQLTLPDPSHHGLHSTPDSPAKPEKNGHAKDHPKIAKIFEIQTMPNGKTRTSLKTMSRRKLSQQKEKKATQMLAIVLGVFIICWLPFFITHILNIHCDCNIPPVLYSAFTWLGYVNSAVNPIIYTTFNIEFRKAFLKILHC
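Agonist mode: compounds alone added to overnight-plated D2 PathHunter cells for 90 min at 37 C, with 57 uM final dopamine (EC100) defining full response. Beta-arrestin recruitment detected by chemiluminescent reagent, read after 1 h at ambient temperature.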
D2 potentiator: Beta-Arrestin HTS for Positive Allosteric Modulators of the Human D2 Dopamine Receptor: Potentiators; D(2) dopamine receptor (Homo sapiens), P14416; DiscoveRx D2 beta-arrestin cells, luminescence, 90 min; 100% = 57 uM dopamine signal; potentiation, % (no concentration beside the values); 0.23% of 360,000 active; active = potentiation of 50% or more; inconclusive = 30% to 50%; inactive = 30% or less;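 further: compound concentration not given in the record; tested on top of an EC20 dose of dopamine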
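D2 cells co-treated with compound plus 50 nM dopamine (EC20) for 90 min at 37 deg C to detect potentiation. Beta-arrestin recruitment was read as enzyme-fragment luminescence after 1 h at ambient temperature. Full response was set by 57 uM dopamine.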
TRPML1 inh: qHTS for Inhibitors of the Human Mucolipin Transient Receptor Potential 1 (TRPML1). activity change, negative = inhibition, % (test concentration not listed). 0.02% of 390,000 active. TRPML1-inducible cells, Ca2+ dye fluorescence, FDSS; hits give low values; inhibition of EC80 agonist-evoked calcium signal. Mucolipin-1 (Homo sapiens), Q9GZU1; in the data active means activity change below about -50%; inconclusive means about -30% to -50%; inactive means above about -30%;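 further: stimulus is agonist 54-4 at its EC80 concentration; on the % scale 0 is the no-effect control and ±100 the full control effect; compound concentration not given in the record; the text of the record puts the active cut at -80%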
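TRPML1-DL cells, Tet-induced overnight (~16 h, 37 °C) at 1,500 cells/well, were loaded with Ca8 no-wash dye plus quencher for 45-90 min at room temperature. Compounds were pinned during FDSS kinetic reading; agonist 54-4 at EC80 (4 uM final) then added.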
PINK1 expr mod: A Quantitative High throughput Screen to Identify Chemical Modulators of PINK1 Expression | PINK1 immunofluorescence, high-content cytometry, 24 h | Potency, µM (titrated, usually from 76.6 µM), for the others: top-dose activation (PINK1 increase), most hits filed as activators | 0.2% of 410,000 active | AID 624263, 2012; active = well fitted activation curve with a large enough effect; inconclusive = small, poorly fitted or top-dose-only effect; inactive = flat fitted curve, though single readings scatter; cell line not stated here;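 further: potency means the concentration at half of the fitted maximal effect; % of control where 0% means no effect; nearly all actives have a fitted effect of over 65% in size; a mitochondrial uncoupler was the plate control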
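Measures PINK1 amount and localization on or inside mitochondria by immunofluorescence. Stable cells get compounds at 5 concentrations for 24 hours before fixation and staining; CCCP controls included.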
* marks the source's active call; other numbers are inactive results; ? = inconclusive; nt = no result given; & = joins results of further samples; [ ] = remark or other dose. Rows are unselected; 1% or so of the library scored in one or more.

Fields: Six1-Eya2 blk | TRPML1 ag | D2 agonist | D2 potentiator | TRPML1 inh | PINK1 expr mod
- CC(O)(c1cccc(F)c1)c1nc(-c2cccc(F)c2)cs1 (configuration not stated)
→ 15.2 | -0.6 | 9.6 | 2.8 | nt | 11.3%
- O=C(CSc1nc2ccccc2s1)NNC(=S)Nc1ccc(Cl)cc1
→ -17.6 | -0.1 | -7.6 | -9.4 | 5.1 | -1.7%
- CC(/C=N\NC(=O)c1cccnc1)c1ccccc1 (configuration not stated)
→ 4.2 | 0.7 | -0.5 | -1.6 | 9.1 | nt
- CC(=O)CSc1nnc(-c2ccc(S(=O)(=O)N3CCOCC3)cc2)n1C
→ 10.6 | 0.4 | 0.9 | -3.4 | 38.4 | 4.4%
- COc1ccc(N2C(=O)NC3CC2(C)Oc2ccccc23)cc1 (configuration not stated)
→ 1.7 | -0.2 | -2.3 | -3.6 | 5.8 | -0.4%
- Cc1ccc(CNC(=O)c2cn(C)c3ccc(S(=O)(=O)N4CCOCC4)cc3c2=O)cc1
→ -0.5 | -0.5&-0.6 | -7.0 | -6.0 | 8.5&-13.9 | 2.4%&2.9%
- COc1ccc(C)cc1NC(=O)Cn1cnnn1
→ 4.5 | 0.0 | -8.7 | -15.1 | -4.4 | 1.2%
- O=C(/C=C/c1cccc(F)c1)c1ccc(N2CCOCC2)cc1
→ 12.4 | 0.0 | -0.8 | -3.4 | 22.4 | -0.7%
- Cc1cc(C(=O)NNC(=O)c2cccc(C(F)(F)F)c2)no1
→ 1.1 | -0.3 | -5.1 | -16.7 | -2.8 | 2.2%
- O=C(Nc1ccccc1C(F)(F)F)N1CCCCCC1
→ 4.2 | 2.2 | -2.2 | 2.5 | -15.0 | -1.1%

Random excerpt: 2 entries already listed.
Fields: Six1-Eya2 blk | TRPML1 ag | D2 agonist | D2 potentiator | TRPML1 inh | PINK1 expr mod
- COc1ccc(C)cc1NC(=O)Cn1cnnn1
→ 4.5 | 0.0 | -8.7 | -15.1 | -4.4 | 1.2%
- O=C(CSc1nc2ccccc2s1)NNC(=S)Nc1ccc(Cl)cc1
→ -17.6 | -0.1 | -7.6 | -9.4 | 5.1 | -1.7%

The list continues.
Fields: Six1-Eya2 blk | TRPML1 ag | D2 agonist | D2 potentiator | TRPML1 inh | PINK1 expr mod
- CCN(C(=O)c1c(C)oc2ncnc(N3CCCCC3)c12)c1cc(C)ccc1C
→ nt | 0.1 | nt | nt | -4.7 | 0.0%
- CCOc1ccc(S(=O)(=O)Nc2ccc(C(=O)N3CCCC3)cc2)cc1
→ -0.1 | -0.2 | 1.4 | 0.0 | -8.3 | 0.9%
- COC(=O)c1cn(C(=O)c2cccc(C)c2)c2ccccc12
→ 18.7 | 0.6 | -4.6 | -26.4 | -8.9 | 3.4%
- O=C1CC(c2ccccc2)Cc2[nH]c(=O)c(C(=O)Nc3cccc(Cl)c3)cc21 (configuration not stated)
→ nt | 1.8 | nt | nt | 0.3 | -0.9%
- CCOc1ccc(C(=O)Nc2cccc(-c3nc4cccnc4s3)c2C)cc1OCC
→ nt | 0.4 | nt | nt | 8.3 | 1.7%
- CC1CCc2c(sc(NC(=O)Cn3cnc([N+](=O)[O-])n3)c2C(N)=O)C1 (configuration not stated)
→ 3.5 | 0.1 | -4.4 | -20.5 | -3.7 | 6.3%
- CCOC(=O)C1CCCN(c2ncnc3c2cnn3-c2ccc(Cl)cc2)C1 (configuration not stated)
→ 9.4 | 3.8 | -2.0 | -6.4 | 1.5 | -2.3%[38.3 µM]
- CCN(CC)C(=O)C1=C(C)N(CCCOC)C(=O)C(CC(=O)NC2CCCCC2)C1 (configuration not stated)
→ 0.0 | -0.7 | 7.3 | 4.7 | -2.1 | 1.7%
- COc1cccc(CNC(=O)c2cc3c(s2)-c2ccccc2OC3)c1
→ nt | 4.7 | nt | nt | 18.9 | 0.7%
- CSc1nn(Cc2ccc(F)cc2)c(N)c1S(=O)(=O)c1ccc(Cl)cc1
→ nt | -0.5 | nt | nt | -19.8 | ?
- CC(C)C(=O)Nc1c(-c2ccccc2F)c(=O)c2ccccc2n1C
→ 7.6 | 2.6 | 1.3 | -3.5 | -12.3 | 0.1%
- COc1cc2c(C(=O)N3CCN(c4ccccc4C)CC3)c(C)oc2cc1Br
→ 0.1 | -1.2 | -3.9 | -2.5 | 3.4 | 3.8%
- CCOc1ccc(N=C(NC#N)SCC)cc1
→ -0.8 | -0.5 | -1.8 | -11.7 | 27.8 | -2.0%[38.3 µM]
- Cc1ccccc1-c1cc2c(c3c1ccn3C)C1CCC2C1 (configuration not stated)
→ -19.4 | -0.3 | -6.7 | -4.1 | -14.5 | 10.8%
- C=C(C)[C@@H]1CC=C(C(=O)O)CC1
→ -2.2 | -0.8 | -3.5 | 7.7 | -8.6 | 0.0%
- C/C(=N\NC(=O)c1ccccn1)c1ccc(Cl)cc1
→ -15.6 | 0.6 | -0.2 | -5.0 | 5.8 | -1.5%
- CC(C)(C)c1ccc(-n2ncc3c2CCCC3NC(=O)CCN2CCCC2=O)cc1 (configuration not stated)
→ 2.0 | 3.2 | 6.1 | -12.4 | 19.4 | 3.6%
- COc1cc(/C=C/C(=O)Nc2ccc(S(=O)(=O)Nc3onc(C)c3C)cc2)cc(OC)c1OC
→ ? | -0.3 | -3.3 | -10.2 | -1.4 | -0.3%
- O=C(O)c1ccc(Cl)c(S(=O)(=O)N(Cc2ccccc2)c2ccc(Cl)cc2)c1
→ -5.4 | -0.7 | -2.4 | 1.1 | -26.6 | 4.0%
- CC(=O)Nc1ccc(NC(=O)COC(=O)CCNS(=O)(=O)c2c(Cl)cccc2Cl)cc1
→ -2.4 | 0.0 | -9.7 | -40.9 | 20.0 | 1.9%
- Cc1ccc2[nH]c(=O)c(-c3noc(CC(C)C)n3)cc2c1
→ -7.4 | 0.6 | -2.3 | -9.7 | 4.1 | 0.2%
- Cc1cc(=O)oc2cc(OCC(=O)N3CCN(c4ccc(F)cc4)CC3)c(Cl)cc12
→ 3.1 | -0.5 | -3.7 | 4.5 | -21.1 | 0.8%
- O=C1NC2=C(CCc3ccccc32)C(c2ccccc2)N1 (configuration not stated)
→ 3.2 | 1.8 | -1.9 | -2.4 | 5.3 | -3.4%
- CCCN(CC1CC1)C(=S)NC(=O)c1ccccc1C
→ -6.9 | -0.7 | -0.6 | 4.1 | 6.4 | 2.2%
- CCN(CC(=O)NC(=O)NCc1ccccc1)CC(=O)Nc1cc(Cl)ccc1C
→ -1.8 | 5.2 | 3.2 | 1.7 | 5.0 | 0.6%
- CCN(CC(=O)Nc1ccccc1C(F)(F)F)C(=O)/C=C/c1ccc(Cl)c([N+](=O)[O-])c1
→ 7.3 | 0.3 | 1.6 | -11.9 | -8.0 | 12.3%
- O=C(CSc1nccn1-c1ccc(F)cc1)Nc1ccc(OC(F)(F)F)cc1
→ nt | 2.7 | nt | nt | 11.2 | ?
- CCOC(=O)c1c(NC(=O)c2ccc(S(=O)(=O)N(C)C3CCCCC3)cc2)sc2c1CCN(C(C)C)C2
→ nt | 23.0 | nt | nt | -2.7 | ?
- CC(C)c1ccc(S(=O)(=O)N2CCC(C(=O)NCc3ccco3)CC2)cc1
→ 4.7 | -0.1 | -1.6 | 12.2 | 4.7 | 1.4%
- COc1cccc(NC(=O)Cn2c(=O)n(CC3CCCO3)c(=O)c3ccccc32)c1 (configuration not stated)
→ 5.3 | 1.2 | 0.0 | -3.6 | 10.6 | -0.8%
- C/C(=N\NC(=O)c1cccnc1)c1ccc(Br)cc1
→ -1.9 | -0.2 | -2.3 | -4.0 | 9.3 | -1.1%
- CN(C(=O)CN1CCN(c2cnn(-c3ccccc3)c(=O)c2Cl)CC1)C1CCS(=O)(=O)C1 (configuration not stated)
→ -0.3 | -0.8 | -2.2 | 6.6 | -0.9 | 0.9%
- COc1ccccc1CNC(=O)CN1C(=O)c2cccnc2Oc2ccccc21
→ nt | 1.6 | nt | nt | -11.4 | -0.3%
- Clc1ccc(-c2nnc(-c3ccccc3)c(N3CCSCC3)n2)cc1
→ -17.5 | -0.7 | -1.9 | -15.2 | -8.6 | -0.7%
- Cc1ccccc1OCC(=O)Nc1c2c(nn1C(C)(C)C)CS(=O)(=O)C2
→ 13.3 | -0.6 | -2.4 | -11.7 | -8.4 | -0.3%
- COc1cc2c(cc1OC)CN(C(=O)CN(C)S(=O)(=O)c1ccc(NC(C)=O)cc1)CC2
→ -22.8 | 0.5 | 1.3 | -0.4 | 4.0 | -1.6%
- CC1CCc2cc(F)cc3c(=O)c(C(=O)O)cn1c23 (configuration not stated)
→ 0.0 | 1.0 | -4.3 | -6.7 | 28.1 | 0.0%
- COc1ccc(-n2c(C(C)n3nc(C)c([N+](=O)[O-])c3C)n[nH]c2=S)cc1 (configuration not stated)
→ 0.7 | -0.3 | -1.1 | -16.6 | -3.4 | 0.3%
- COc1ccc(NC(=O)Nc2sc(=S)n(C)c2C)cc1
→ -10.6 | -0.4 | 5.0 | -9.8 | -8.9 | 6.5%
- CCOC(=O)/C(C#N)=C\c1ccc(O)c(OC)c1
→ 7.3 | -0.5 | -2.2 | -5.9 | -1.3 | 4.5%
- Cc1ccc(-n2nc3c(=O)n(CCCC(=O)NCc4cccc(Cl)c4)nc(C)c3c2C)cc1
→ -26.9 | 2.0 | -4.2 | -14.1 | 2.6 | -0.5%
- COC(=O)c1c(NC(=O)Cn2cc([N+](=O)[O-])cn2)sc2c1CCC2
→ 8.5 | 3.3 | -2.3 | -5.4 | 5.9 | 5.9%
- CC(=O)Nc1ccc(NS(=O)(=O)c2ccc3c(c2)NC(=O)CC(=O)N3)cc1
→ 3.7 | -0.2 | -3.9 | -10.8 | 17.3 | -0.6%
- CCOC(=O)c1cccc(NC(=O)c2sc3nc[nH]c(=O)c3c2C)c1
→ nt | -0.1 | nt | nt | -11.2 | -0.2%
- Cc1ccc(NC(=O)c2ccccc2NC(=O)Cc2ccccc2)cc1
→ 7.0 | 1.6 | 0.4 | -13.9 | 1.0 | 1.7%
- COc1ccc(F)cc1CN1CCN(C(=O)c2ccc(S(=O)(=O)N3CCCCCC3)cc2)CC1
→ 4.3 | -0.4 | -4.6 | -11.7 | 13.0 | -1.3%
- CN(C)S(=O)(=O)c1cccc(NC(=S)Nc2ccc3cn[nH]c3c2)c1
→ 8.1 | 0.2 | -3.8 | -10.8 | 3.9 | 0.1%
- NC(=O)c1cc[n+](CC(=O)c2ccc(NC(=O)c3ccccc3)cc2)cc1
→ 1.2 | 0.5 | -1.7 | -10.6 | 7.5 | 0.7%
- O=C(NCc1ccc(F)cc1)c1cnc2n(c1=O)CCS2
→ 3.2 | -0.1 | -2.1 | -8.9 | 18.0 | 0.7%
